Assay outcomes (PubChem BioAssay)
D2 agonist: human D2 receptor agonism in beta-arrestin assay; P14416; DiscoveRx PathHunter D2 beta-arrestin, luminescence, 90 min; 100% = 57 uM dopamine signal; activation, % (no concentration beside the values); 360,000 compounds, 0.084% hits; in the data active = activation above about 40%; inconclusive = about 15% to 40%; inactive = below about 15%; also: compound concentration not given in the record; the text of the record calls up to 30% inactive
Target sequence (P14416 whole entry, looked up): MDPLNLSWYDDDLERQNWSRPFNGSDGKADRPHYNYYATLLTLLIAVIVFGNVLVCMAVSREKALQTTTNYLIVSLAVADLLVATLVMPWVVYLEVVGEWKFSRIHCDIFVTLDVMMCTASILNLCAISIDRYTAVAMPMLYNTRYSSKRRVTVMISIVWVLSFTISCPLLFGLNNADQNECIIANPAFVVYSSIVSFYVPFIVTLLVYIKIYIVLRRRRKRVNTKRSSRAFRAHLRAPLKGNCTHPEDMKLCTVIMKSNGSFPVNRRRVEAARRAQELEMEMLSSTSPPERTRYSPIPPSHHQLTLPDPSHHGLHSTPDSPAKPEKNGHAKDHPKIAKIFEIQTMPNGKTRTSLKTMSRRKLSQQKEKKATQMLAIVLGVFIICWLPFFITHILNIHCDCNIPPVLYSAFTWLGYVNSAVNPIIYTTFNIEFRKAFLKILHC
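Agonist mode: compounds alone added to overnight-plated D2 PathHunter cells for 90 min at 37 C, with 57 uM final dopamine (EC100) defining full response. Beta-arrestin recruitment detected by chemiluminescent reagent, read after 1 h at ambient temperature.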
Sfp PPTase inh: inhibitors of Bacillus subtilis Sfp phosphopantetheinyl transferase. Q9F4F7. Biochemical Sfp PPTase activity, qHTS. Potency, µM, inactives show max response, negative = inhibition, usual class: inhibitors. 310,000 compounds, 3.5% hits. AID 1490; active = well fitted inhibition curve with a large enough effect; inconclusive = small, poorly fitted or top-dose-only effect, or another doubt; inactive = no such curve, though single readings can be large or run the other way;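 also: the enzyme is Sfp with the accession as filed and its product quenches rhodamine fluorescence; potency is read from the fitted curve at half-maximal effect; 0% = enzyme reaction without inhibitor and -100% = no enzyme wells; top concentration of the series not given in the record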
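Compounds were incubated with enzyme (final 15 nM) for 15 min at room temperature before substrate addition started the reaction. Fluorescence at 525 nm excitation, 598 nm emission was recorded immediately and after 30 minutes.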
Six1-Eya2 inh: Six1/Eya2 interaction inhibition | AlphaScreen GST-Six1/His-Eya2 binding, biochemical; stronger effect = lower value; control for the full effect not named in the record | activity change, % (concentration not given with the values) | 360,000 compounds, 0.56% hits | AID 651725; in the data active = activity change below about -65%; inconclusive = about -30% to -65%; inactive = above about -30%; also: % is scaled to controls: 0 for no effect and ±100 for the full control effect
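Six1/Eya2 binding was read as AlphaScreen signal after compounds were pinned into GST-Six1 plus His-tagged Eya2 (5X stock 250/500 nM) in pH 8.0 Tris/NaCl/TCEP buffer, beads added, then incubated 1 h, 37 C, dark.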
PINK1 expr mod: changes PINK1 expression. 410,000 compounds, 0.2% hits. Potency, µM (highest dose often 76.6 µM), for the others: top-dose activation (PINK1 increase), most hits filed as activators. PINK1 immunofluorescence, high-content cytometry, 24 h. AID 624263; active = well fitted activation curve with a large enough effect; inconclusive = small, poorly fitted or top-dose-only effect; inactive = flat fitted curve, though single readings scatter; cell line not stated here;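 also: potency is read from the fitted curve at half-maximal effect; % of control where 0% means no effect; nearly all actives have a fitted effect of over 65% in size; a mitochondrial uncoupler was the plate control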
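Cells are seeded, rested 12 hours, then given compound at five concentrations or DMSO for 24 hours. After fixation, blocking and antibody staining, PINK1 amount and mitochondrial localization are scored; CCCP serves as control.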
D2 PAM: positive allosteric modulators of human D2 dopamine receptor; potentiation, % (test concentration not listed); DiscoveRx D2 beta-arrestin cells, luminescence, 90 min; 100% = 57 uM dopamine signal; AID 624464; 360,000 compounds, 0.23% hits; P14416; active = potentiation of 50% or more; inconclusive = 30% to 50%; inactive = 30% or less;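 also: compound concentration not given in the record; tested on top of an EC20 dose of dopamine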
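PathHunter beta-arrestin assay in DiscoveRx D2 cells. Compounds were added with an EC20 of dopamine (50 nM final) for 90 min at 37 deg C. Luminescence was read 1 h after detection reagent, with 57 uM dopamine as the EC100 control.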
CtBP-E1A inh: blocks the CtBP interaction with E1A; AlphaScreen GST-E1A/His-CtBP binding, 1536-well; stronger effect = lower value; control for the full effect not named in the record; activity change, % (concentration not given with the values); 340,000 compounds, 0.49% hits; in the data active means activity change below about -65%; inconclusive means about -30% to -65%; inactive means above about -30%; also: % is scaled to controls: 0 for no effect and ±100 for the full control effect
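In 5 uL wells, 23 nL compound meets equimolar GST-E1A and His-CtBP (5X stock 125 nM each) for 2 h, 37 °C. Beads (5X, 50 ug/mL) then 1 h, 37 °C, dark.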
TRPV1 potentiator: enhances activation of the human vanilloid receptor TRPV1; Q8NER1; TRPV1-expressing cells, Fluo-8 calcium influx, capsaicin EC20 potentiation; host cell line not named in the record; control for the full effect not named in the record; potentiation, % at 8.33 µM; 320,000 compounds, 0.02% hits; AID 540277; active means potentiation above 80%; inconclusive means 30% to 80%; inactive means below 30%; also: 0% is about no effect
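Fluo-8 calcium influx in TRPV1-expressing cells, kinetic read (ex 480/em 520 nm). Compound added and read 3 min for agonist activity, followed by capsaicin at EC20 final and 2 min further read for enhancement.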
The depositor's hits bear a star; ? = inconclusive; · = no result given; & = joins results of further samples; [ ] = remark or other dose. The list is partial. The share of hits here may be higher or lower than overall.

The opening 4 compounds (preview)
SMILES	D2 agonist	Sfp PPTase inh	Six1-Eya2 inh	PINK1 expr mod	D2 PAM	CtBP-E1A inh	TRPV1 potentiator
COC(=O)C1=C(c2ccc(OC(F)(F)F)cc2)C[C@@H]2CC[C@H]1N2C(=O)N1CCC(O)CC1	0.1	·	3	0.9%	-9	4	-13
CCN1CCN(c2ccc(N)cc2C)CC1	-2.9	14%	5	1.3%	-18	0	-4
CC1=C(C(=O)O)N2C(=O)C(NC(=O)c3nn(C)cc3[N+](=O)[O-])C2SC1 (configuration not stated)	-6.2	4µM*	7	2.6%	-4	-24	7
Cc1ccccc1-c1ccc2c(c1)CNCc1cnnn1-2	1.4	·	0	1.0%	-3	5	·

The list itself (from the top)
SMILES	D2 agonist	Sfp PPTase inh	Six1-Eya2 inh	PINK1 expr mod	D2 PAM	CtBP-E1A inh	TRPV1 potentiator
COC(=O)C1=C(c2ccc(OC(F)(F)F)cc2)C[C@@H]2CC[C@H]1N2C(=O)N1CCC(O)CC1	0.1	·	3	0.9%	-9	4	-13
CCN1CCN(c2ccc(N)cc2C)CC1	-2.9	14%	5	1.3%	-18	0	-4
CC1=C(C(=O)O)N2C(=O)C(NC(=O)c3nn(C)cc3[N+](=O)[O-])C2SC1 (configuration not stated)	-6.2	4µM*	7	2.6%	-4	-24	7
Cc1ccccc1-c1ccc2c(c1)CNCc1cnnn1-2	1.4	·	0	1.0%	-3	5	·
CCOC(=O)[C@]12Cc3cc(OC)ccc3[C@H]1N(CCC(=O)OC)C(=O)c1cc(OC)ccc12	·	·	1	-1.2%	·	-2	·
Cc1nc2cc(OC(=O)N(C)Cc3cccc(-c4ccncc4)c3)ccc2s1	·	·	-9	-0.2%	·	-10	·
CCOC(=O)c1cc(C)n(CCc2cnc[nH]2)c1C	-0.5	-3%	-2	-3.9%	-6	-7	?
COc1ccc2c(c1O)[C@]13CCN(C)[C@H](C2)[C@@H]1CCC(=O)C3	1.1	4%	-1	-0.4%	-3	1	-3
C[C@H]1CCC/C=C/[C@@H]2C[C@H](O)C[C@H]2[C@@H](O)/C=C/C(=O)O1	-4.0	·	2	-6.7%	-18	4	·
CCN1CCC(NCC2CCCCC2)CC1	-2.8	2%	-1	-0.4%	-1	13	0
FC(F)(F)c1ccc2c(c1)NP(=S)(N1CCOCC1)c1nccn1-2 (configuration not stated)	2.5	16%	2	-2.0%[38.3 µM]	-3	7	9
CC1(C)CN=C(Nc2ccccc2C(F)(F)F)S1	-2.1	18%	4	0.7%	7	9	-1
COc1ccc(CN2Cc3cc(-c4ccccc4)ccc3-n3nncc3C2)cc1	-1.5	·	-21	-0.8%	-8	-7	·
Cc1nc2ccccc2c(=O)n1-c1c(Cl)cccc1Cl	-0.5	·	-3	8.3%	·	1	·
COc1ccc(-c2nn(CCC#N)cc2C(=O)Nc2ccc(C(C)=O)cc2)cc1	0.0	1%	6	0.9%	1	0	6
COc1cc(OC)c(OC)cc1CN1CCN(C(=O)Cc2ccccc2)CC1	-2.1	-19%	-2	-0.3%	-2	2	-7
COC(=O)C1=C(c2ccc(-c3ccccc3)c(F)c2)C[C@@H]2CC[C@H]1N2C(=O)N1CCCCC1	-1.4	·	-11	?	·	-27	3
Cc1c(-c2cccc(Cl)c2)nc2ccccc2c1C(=O)N1CCC2(CC1)OCCO2	-5.4	-12%	3	1.1%	-28	1	-17
c1cc(CCN2CCCC2)ccn1	2.0	-5%	8	0.9%	-3	-8	?
O=CC(Cl)P(=O)(N1CCOCC1)N1CCOCC1 (configuration not stated)	-1.7	22%	-2	0.2%	-23	·	-2
CC1(C)CC(=O)C(C=NCCN2CCN(C(=O)Cc3ccccc3)CC2)=C(O)C1	1.6	12%	3	-1.5%[38.3 µM]	5	7	-4
CCCCCn1c(N)c(C(=O)NCCN2CCOCC2)c2nc3ccccc3nc21	-4.1	-27%	16	-0.8%	-7	18	-5
O=C(NCc1ccccc1)c1cccn(Cc2cccc(Cl)c2)c1=O	7.5	4%	1	0.6%	-1	·	-5
CN1C(=O)N(C)C(=O)C(CCc2ccccn2)(CCc2ccccn2)C1=O	-4.4	3%	16	1.0%	-9	5	23
CCOC(=O)C(O)(c1ccc(N(CC)C(=O)OC)cc1)C(F)(F)F (configuration not stated)	-1.6	1%	4	5.8%[38.3 µM]	5	-2	-9
c1ccc(C2(N3CCCCC3)CCCCC2)cc1	2.6	·	-1	-0.3%	-7	-2	·
CSCCC(c1nnnn1C1CCCCC1)N1CCC2(CC1)C(=O)NCN2c1ccccc1 (configuration not stated)	-2.8	·	-7	0.1%	-6	1	·
O=[N+]([O-])c1ccc(C2C3C(c4ccccc4)=NC4(CCCCC4)N32)cc1 (configuration not stated)	-1.5	-4%	-5	23%[38.3 µM]	-4	-1	·
c1cc2c(cc1C1OCC3C(c4ccc5c(c4)OCO5)OCC13)OCO2 (configuration not stated)	-4.2	·	20	1.5%	-23	24	·
CCOc1cc(/C=C2\C(=O)NC(=O)N(CCc3ccc(F)cc3)C2=O)ccc1O	-3.4	71µM*	4	-0.4%	-10	-2	11
COc1cc(/C=C2\C(=O)NC(=O)N(CCc3ccc(F)cc3)C2=O)ccc1O	0.2	?	-2	4.3%	-2	-1	5
COC(=O)C1=C(c2ccc(OC(F)(F)F)cc2)C[C@@H]2CC[C@H]1N2C(=O)N1CCOCC1	-6.7	·	0	2.3%	0	2	-14
C[C@H]1OC[C@@H](C[N+](C)(C)C)O1	-6.5	9%	-17	0.6%	1	4	-13
CN1CCN(c2ccc(/C=C3\C(=O)NC(=S)N(c4cccc(Br)c4)C3=O)o2)CC1	-5.9	10%	-6	6.0%	-33	5	3
Fc1ccccc1CNC1CN2CCC1CC2 (configuration not stated)	-2.6	10%	8	2.8%	-16	1	1
C=C1C2C[C@@]3([C@@H]1O)[C@@H](C[C@@H]2O)[C@@]12C4[C@@H]3C[C@@H]1[C@@](C)(CC[C@@H]2O)CN4CC	7.4	·	4	1.2%	-11	6	10
COc1ccc(/C=C/C(=O)c2c(O)n(CCC3=CCCCC3)c(=O)[nH]c2=O)cc1	-0.7	14%	2	-3.4%	6	-1	3
Nc1c2c(nc3ccccc13)CCN(Cc1ccccc1)C2	-6.8	-5%	-10	1.1%	-31	·	0
Cc1cccc(NC(=O)N2C[C@H]3C[C@@H](C2)c2cccc(=O)n2C3)c1	-5.1	-1%	3	-0.1%	-22	-14	-7
CCOC(=O)c1ccccc1NC(=O)c1c(O)[nH]c(=O)[nH]c1=O	-2.7	·	-2	-0.3%	-6	5	·
O=C1CC(=O)N(c2cccc(C(F)(F)F)c2)C(=O)N1	-0.2	-20%	4	1.3%	-12	·	1
Fc1ccc(Cn2nnnc2C(c2ccc(F)cc2)N2CC=C(c3ccc(F)cc3)CC2)cc1 (configuration not stated)	-4.2	-7%	10	4.1%	-7	1	18
O=S1(=O)CC2(N3CCOCC3)CCCCCCC21 (configuration not stated)	-2.7	13%	4	-11%[38.3 µM]	-14	11	-1
O=C(Nc1nccs1)c1c(O)c2c(n(Cc3ccco3)c1=O)CCCC2	-1.4	-25%	-2	-0.4%	-11	·	-1
COc1ccc(OC)c(NC(=O)N2C[C@H]3C[C@@H](C2)c2cccc(=O)n2C3)c1	-5.3	7%	0	-0.1%	-37	-1	-13
CNC(=O)O/N=C/c1nn(C(=O)C(C)(C)C)cc1Br	0.5	3%	3	1.4%	-3	-15	-1
CCNc1ccc(P(=S)(N(C)C)N(C)C)cc1	-2.2	23%	7	2.1%[38.3 µM]	-13	1	-39
O=C1NC(c2cc3ccccc3nc2Cl)Nc2ccccc21 (configuration not stated)	-1.9	8%	11	3.6%	-2	-4	1
CN(C)CCN=Cc1c(O)n(Cc2ccco2)c(=O)[nH]c1=O	-2.5	-10%	-7	-1.0%	17	2	1
CN(C/N=C(\N)N[N+](=O)[O-])S(=O)(=O)c1ccccc1	-16	11%	-3	-1.1%	-3	4	3
Nc1ccc2ccccc2c1	-4.1	·	-4	1.0%	8	-3	·
O=c1[nH]c(=S)n(C2CC2)c(O)c1/C=N/N1CCOCC1	-3.2	-17%	-1	14%	14	-2	-4
O=[N+]([O-])c1ccc(CN2CCN(c3ccc(Cl)cc3)CC2)o1	-0.6	79µM*	2	3.0%	-6	-7	17
COC(=O)Cn1cc(/C=C2\C(=O)NC(=O)N(c3ccc(OC)cc3)C2=O)c2ccccc21	-3.3	-23%	4	35µM*	1	1	19
COC(=O)[C@@]1(Cc2ccc(F)cc2)[C@H]2c3cc(C(=O)N(C)C)[nH]c3C[C@H]2CN1C(=O)c1ccccc1	-1.0	-25%&-1%	-7	6.7%	-7	-2	4
CCCCCCCCN1C(=O)[C@H](CC(=O)NCCc2ccccc2OC)C[C@@]2(C(=O)OC)CCCCC=C12	·	·	3	?	·	-14	·
CCC1(NS(=O)(=O)c2ccc(N)cc2)C(=O)N(C)C(=O)N(C)C1=O	-1.0	·	5	5.7%	-10	-23	·
C[C@]12CC[C@H](O)CC1=CCC1C2CC[C@@]2(C)C1C[C@@H]1CC(=O)O[C@@H]12 (some centres not stated)	0.2	·	11	-1.9%	-3	4	·
O=Cc1c(C(=O)O)n(Cc2ccc(Cl)cc2)c2ccccc12	-0.5	-17%	-9	0.5%	-11	-2	-10
CC(=O)c1c(C)n(C2CCCCC2)c2ccc(O)cc12	3.0	11%	3	0.6%	-2	·	-8

(list continues)
SMILES	D2 agonist	Sfp PPTase inh	Six1-Eya2 inh	PINK1 expr mod	D2 PAM	CtBP-E1A inh	TRPV1 potentiator
CCOC(=O)[C@]12Cc3cc(C)ccc3[C@H]1N(CCC(=O)OC)C(=O)c1ccccc12	·	·	0	-1.2%	·	0	·
CC[C@]12CC[C@H](O)CC1=CCC1C2CC[C@]2(C)C(=O)CCC12 (some centres not stated)	1.5	·	-1	2.4%	-4	-3	·
COc1ccc(N2C(=O)CC(N3CCC(n4c(=O)[nH]c5ccccc54)CC3)C2=O)cc1 (configuration not stated)	-1.9	8%	-3	?	-5	4	7
O=C1CN=C(c2ccccc2)c2cc([N+](=O)[O-])ccc2N1	6.5	23%	5	0.9%	-2	-3	·
O=C(c1cccc(N2CCCC2=O)c1)N1CCC2(CC1)OCCO2	-4.6	-7%	-4	1.1%	-18	-5	0
C#CC(CC)(CC)NC(=O)Nc1ccc(OCC)cc1	-2.7	10%	-7	4.4%	-9	5	-7
